From PubChem BioAssay
Ecoli rRNA inh – inhibitors of bacterial rRNA selective over humanized ribosomes; hit rate 1.6% among 350,000; E. coli WT GFP vs humanized-ribosome RFP mutants, fluorescence, 24 h; stronger effect = lower value; DMSO median 0, no signal -100; GFP signal change (wild-type ribosome), % (concentration not given with the values);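 active = significant combined selectivity score with lowered wild-type GFP, culture density cut under 30%, mutant RFP and density less affected; inactive = any of these conditions unmet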; also: one replicate is shown; some compounds called inactive have numbers as strong as hits
FGF22 binding – FGF22 (human) thermal shift binding; recombinant FGF22 thermal shift, SYPRO orange fluorescence; percent of sucrose octasulfate shift, DMSO zero; calls only at 9.99 µM; hit rate 1.5% among 340,000; AID 651658;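 active = melting point raised past a set limit in the mean and every replicate; three in four hits are not shown here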
Target sequence (Q9HCT0 whole entry, looked up): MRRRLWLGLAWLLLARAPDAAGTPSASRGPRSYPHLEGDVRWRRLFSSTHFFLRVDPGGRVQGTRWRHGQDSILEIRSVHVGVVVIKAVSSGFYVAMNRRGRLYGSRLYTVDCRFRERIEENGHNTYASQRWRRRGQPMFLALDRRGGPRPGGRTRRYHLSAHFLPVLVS
AF4-AF9 inh – blocks AF4 peptide binding to human AF9; AlphaScreen, biotin-AF4 peptide binding to FLAG-AF9; AID 651704; inhibition, % at 10 µM; hit rate 0.47% among 350,000; P42568;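 active = every replicate reaching a set inhibition limit, whatever the replicate mean, cut at about 25% in these data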;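 also: 0% = plate neutral control median and 100% = total signal loss; the record names both 10 and 1 µM as test concentration; the first replicate is given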
Target sequence (P42568 whole entry, looked up): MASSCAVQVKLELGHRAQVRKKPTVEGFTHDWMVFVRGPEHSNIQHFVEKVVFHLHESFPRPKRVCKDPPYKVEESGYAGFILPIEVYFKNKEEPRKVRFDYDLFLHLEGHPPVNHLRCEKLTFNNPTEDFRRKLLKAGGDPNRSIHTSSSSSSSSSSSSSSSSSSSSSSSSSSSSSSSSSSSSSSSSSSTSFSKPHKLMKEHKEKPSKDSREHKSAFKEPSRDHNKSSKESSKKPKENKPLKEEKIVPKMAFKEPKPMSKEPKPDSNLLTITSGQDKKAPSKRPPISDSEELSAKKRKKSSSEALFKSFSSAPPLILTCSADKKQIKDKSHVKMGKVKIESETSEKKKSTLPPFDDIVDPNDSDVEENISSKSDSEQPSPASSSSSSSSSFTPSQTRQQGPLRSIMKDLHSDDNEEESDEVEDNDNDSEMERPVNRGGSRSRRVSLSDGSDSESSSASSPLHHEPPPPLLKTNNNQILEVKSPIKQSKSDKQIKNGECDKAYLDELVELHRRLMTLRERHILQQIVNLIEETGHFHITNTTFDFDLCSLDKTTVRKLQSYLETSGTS
Ecoli rRNA inh OD600 – further read-out of Ecoli rRNA inh, marked with its call; OD600 change, %; measured here: OD600 growth;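 optical density of the mix in the first replicate; 0 = DMSO median and -100 = no signal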
Ecoli rRNA inh RFP – further read-out of Ecoli rRNA inh, marked with its call; RFP signal change, %; measured here: RFP humanized mutant strains;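 first replicate; 0 = DMSO median and -100 = no signal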
An asterisk follows results filed as active; i = inactive; + = active, no number; & = joins results of further samples. An excerpt; rates above refer to the full screens.

entry	Molecule	Ecoli rRNA inh OD600	Ecoli rRNA inh	Ecoli rRNA inh RFP
1	COc1ccc(-c2ccc(C3[C@H]4CNC[C@@H]3N4C(=O)Nc3ccc(C(F)(F)F)cc3)cc2)cc1 (some centres undefined)	-79&-74	-59&-60	-13&-8.7
2	C[C@@H]1CN([C@@H](C)CO)C(=O)c2cc(NS(=O)(=O)c3ccc(Cl)cc3)ccc2O[C@@H](C)CCCCO[C@H]1CN(C)S(=O)(=O)c1ccccc1	6	-1	1.5
3	C[C@@H]1CN([C@@H](C)CO)C(=O)Cc2cc(NS(=O)(=O)c3ccc(F)cc3)ccc2O[C@H]1CN(C)C(=O)Nc1ccccc1	8	0	0.3
4	CC(=O)N1CCCCN2[C@H](CO)[C@@H](c3ccc(-c4cccc(C)c4)cc3)[C@H]2C1	-4	4	3.5
5	C[C@@H]1CN([C@@H](C)CO)C(=O)Cc2cc(NS(=O)(=O)c3ccccc3)ccc2O[C@@H]1CN(C)C(=O)Nc1ccc(C(F)(F)F)cc1	-13	-5	4.6
6	COc1ccc(S(=O)(=O)N(C)C[C@@H]2OCCCC[C@@H](C)Oc3ccc(NS(=O)(=O)c4cccs4)cc3C(=O)N([C@@H](C)CO)C[C@H]2C)cc1	2	-4	1.8
7	C[C@H]1CN([C@@H](C)CO)C(=O)c2cc(NC(=O)Cn3cnnn3)ccc2O[C@H]1CN(C)Cc1ccc(Cl)c(Cl)c1	-19	0	5.3
8	C[C@H]1CN([C@@H](C)CO)C(=O)c2cc(C#CC3CC3)cnc2O[C@H]1CN(C)C(=O)c1ccc(F)cc1	11	2	2.4
9	CC1OC(COCc2ccccc2)Cc2[nH][nH]c(=O)c21 (centres undefined)	15	22	6.8
10	Cc1ccccc1N1Cc2ccccc2C1=O	14	3	-1.8
11	COCC#Cc1cnc2c(c1)C(=O)N([C@H](C)CO)C[C@@H](C)[C@H](CN(C)C(=O)Nc1cccc(F)c1)O2	-2	1	-3.0
12	O=C(C[C@H]1C=C[C@@H](NS(=O)(=O)c2ccc(F)cc2)[C@H](CO)O1)NCCN1CCCCC1	3	1	-2.1

entry	FGF22 binding	AF4-AF9 inh
1	i	-0.2&0.1
2	i	-0.3
3	i	-0.5
4	i	-2.3
5	i	-14
6	i	1.9
7	i	1.7
8	i	-3.2
9	i	-4.3
10	i	0.5
11	i	-4.0
12	i	-1.2

Following part
entry	Molecule	Ecoli rRNA inh OD600	Ecoli rRNA inh	Ecoli rRNA inh RFP
13	O=C(C[C@@H]1CC[C@@H]2[C@H](COC[C@H](O)CN2C(=O)c2ccc(F)cc2)O1)NC1Cc2ccccc2C1	-2	2	2.0
14	CNC[C@H]1OCCCC[C@H](C)Oc2ccc(NC(=O)Cc3ccccc3)cc2C(=O)N([C@H](C)CO)C[C@@H]1C	0	3	0.4
15	O=C(NCC[C@@H]1CC[C@H](NC(=O)C2CCCCC2)[C@H](CO)O1)c1cc(Cl)cc(Cl)c1	-12	-6	1.9
16	C[C@H](O)[C@@H]1C(=O)N2CCc3c([nH]c4ccccc34)[C@@H]2C[C@@H]1N(C)Cc1ccc(Cl)cc1	-18	0	-1.0
17	O=C(N[C@@H]1C=C[C@H](CC(=O)N2CCc3ccccc3C2)O[C@H]1CO)C1CC1	7	0	0.8
18	N#C[C@@H]1[C@@H](c2ccccc2-c2ccccc2)[C@H](CO)N1C(=O)Cc1ccncc1	-6	-6	-2.2
19	C[C@H]1CCCCO[C@H](CN(C)C(=O)C2CCCCC2)[C@@H](C)CN([C@@H](C)CO)C(=O)c2cc(NC(=O)Nc3ccc4c(c3)OCO4)ccc2O1	-2	-1	0.1
20	C#CCN(C[C@H]1[C@H](OC(=O)NCc2ccco2)[C@H](OC(=O)NCc2ccco2)C[C@H]2C(=O)N(c3ccccc3)C(=O)[C@@H]12)S(=O)(=O)c1ccc(C)cc1	7	10	0.1
21	CC(C)NC(=O)N(C)C[C@H]1OCCCC[C@H](C)Oc2ccc(NC(=O)c3ccccc3)cc2C(=O)N([C@H](C)CO)C[C@H]1C	5	1	-1.5
22	Cc1ccc(S(=O)(=O)N(C)C[C@H]2Oc3ccc(NS(=O)(=O)c4ccccc4)cc3C(=O)N([C@@H](C)CO)C[C@@H]2C)cc1	-4	-3	0.3
23	C[C@H](CO)N1C[C@H](C)[C@@H](CN(C)C(=O)Nc2ccccc2)Oc2ccc(NC(=O)c3ccncc3)cc2CC1=O	9	1	1.4
24	Cc1noc(C)c1S(=O)(=O)Nc1cccc2c1O[C@@H](CN(C)C)[C@@H](C)CN([C@H](C)CO)C2=O	8	9	2.5

entry	FGF22 binding	AF4-AF9 inh
13	i	-1.7
14	i	4.3
15	i	-1.0
16	i	2.6
17	i	-0.4
18	i	-0.7
19	i	8.6
20	i	-1.2
21	i	-3.6
22	i	1.2
23	i	0.3
24	i	-3.1

More entries.
entry	Molecule	Ecoli rRNA inh OD600	Ecoli rRNA inh	Ecoli rRNA inh RFP
25	C[C@@H]1CN([C@H](C)CO)C(=O)c2cc(NC(=O)c3ccncc3)ccc2O[C@H]1CN(C)C(=O)NC1CCCCC1	12	0	-0.8
26	C[C@@H]1CCCCO[C@@H](CN(C)S(=O)(=O)c2cccs2)[C@@H](C)CN([C@H](C)CO)C(=O)c2cc(NC(=O)Nc3ccc4c(c3)OCO4)ccc2O1	3	2	-1.5
27	C[C@@H]1CN([C@@H](C)CO)C(=O)c2cc(/C=C/c3ccccc3)cnc2O[C@H]1CN(C)Cc1cncnc1	-1	1	-3.4
28	Cc1ccccc1S(=O)(=O)N1C[C@H](O)COC[C@H]2O[C@H](CC(=O)O)CC[C@@H]21	-18	3	-6.2
29	C/C=C/c1ccc2c(c1)O[C@@H](CN(C)Cc1cccc(F)c1)[C@@H](C)CN([C@H](C)CO)S2(=O)=O	-48	-22	15
30	COC(=O)c1cc2c(c3c4ccccc4n(S(=O)(=O)c4ccccc4)c13)C(=O)N(Cc1ccc(C(F)(F)F)cc1)C2	1	9	3.0
31	COc1ccc(S(=O)(=O)Nc2ccc3c(c2)OC[C@@H](C)NC[C@H](C)[C@@H](OC)CN(C)C3=O)cc1	2	-2	0.0
32	C[C@H](CO)N1C[C@H](C)[C@@H](CN(C)Cc2ccc3c(c2)OCO3)Oc2ccc(NS(=O)(=O)c3ccc(Cl)cc3)cc2CC1=O	-76	-55	-18
33	C[C@H](CO)N1C[C@H](C)[C@H](CN(C)S(=O)(=O)c2cccs2)Oc2c(NC(=O)Nc3ccc4c(c3)OCO4)cccc2C1=O	-16	-15	1.4
34	O=C(C[C@@H]1C=C[C@@H](NS(=O)(=O)c2ccccc2)[C@@H](CO)O1)N1CCC(Cc2ccccc2)CC1	-16	-3	-4.9
35	C[C@@H]1CCCCO[C@H](CN(C)S(=O)(=O)c2ccc(F)cc2)[C@H](C)CN([C@@H](C)CO)C(=O)c2cc(NS(C)(=O)=O)ccc2O1	-7	-7	1.4
36	CC(C)(O)C#Cc1ccc([C@@H]2[C@@H](CO)N3CCCCN(C(=O)c4ccncc4)C[C@@H]23)cc1	2	3	-1.5

entry	FGF22 binding	AF4-AF9 inh
25	i	-3.6
26	i	2.3
27	i	4.3
28	i	-17
29	i	11
30	i	0.3
31	i	-2.8
32	i	5.3
33	i	8.3
34	i	-12
35	i	0.6
36	i	-4.5

(next part)
entry	Molecule	Ecoli rRNA inh OD600	Ecoli rRNA inh	Ecoli rRNA inh RFP
37	O=C(NCC[C@H]1CC[C@H](NC(=O)C2CCCC2)[C@@H](CO)O1)c1cnccn1	5	4	-2.0
38	COc1ccc(CN(C)C[C@@H]2Oc3ccc(NC(=O)CCN4CCOCC4)cc3CC(=O)N([C@@H](C)CO)C[C@@H]2C)cc1	-2	1	-0.4
39	C[C@@H]1CCCCO[C@H](CN(C)C(=O)c2ccccc2)[C@H](C)CN([C@@H](C)CO)C(=O)c2cc(NC(=O)Nc3ccccc3)ccc2O1	-2	-3	1.6
40	C[C@@H]1CN([C@H](C)CO)S(=O)(=O)c2ccc(C#CCN(C)C)cc2O[C@@H]1CN(C)C(=O)CN(C)C	-4	7	-0.3
41	OC[C@@H]1CN(Cc2ccc(Cl)cc2)C[C@H](n2cnc3c(N4CCN(c5ccccc5)CC4)ncnc32)O1	-3	3	36
42	O=C(NCc1cc(Cl)cc(Cl)c1)c1ccc2sc([C@H]3C[C@H](O)[C@@H](CO)O3)nc2c1	1	-4	0.8
43	O=C(c1cnccn1)N1CC[C@@H]2[C@@H](CO)Nc3ccc(-c4ccccc4)cc3[C@@H]21	16	2	-2.1
44	Cc1noc(C)c1S(=O)(=O)Nc1ccc2c(c1)CC(=O)N([C@@H](C)CO)C[C@@H](C)[C@@H](CN(C)S(=O)(=O)c1cn(C)cn1)O2	3	2	0.5
45	CCC(=O)N(C)C[C@@H]1Oc2cc(C#Cc3ccncc3)ccc2S(=O)(=O)N([C@H](C)CO)C[C@H]1C	-15	-1	-4.0
46	CC(C)C(=O)Nc1cccc(COc2ccc(CN(Cc3ccccc3)C(=O)OC(C)(C)C)cc2)c1	4	10	-2.1
47	O=C(CN1CCOCC1)N[C@@H]1CC[C@H](CCNC(=O)C2CCCC2)O[C@@H]1CO	8	6	-2.0
48	C[C@@H]1CN([C@@H](C)CO)C(=O)c2cc(NC(=O)CCC(F)(F)F)ccc2O[C@H]1CN(C)C(=O)NC1CCCCC1	-6	-2	1.3

entry	FGF22 binding	AF4-AF9 inh
37	i	-2.1
38	i	-6.3
39	i	-7.7
40	i	3.5
41	i	5.2
42	i	-1.0
43	i	0.2
44	i	0.6
45	i	-1.8
46	i	-1.4
47	i	-0.1
48	i	2.7

Shown with one line to a screen: part of the list above
#40 C[C@@H]1CN([C@H](C)CO)S(=O)(=O)c2ccc(C#CCN(C)C)cc2O[C@@H]1CN(C)C(=O)CN(C)C
#41 OC[C@@H]1CN(Cc2ccc(Cl)cc2)C[C@H](n2cnc3c(N4CCN(c5ccccc5)CC4)ncnc32)O1
#42 O=C(NCc1cc(Cl)cc(Cl)c1)c1ccc2sc([C@H]3C[C@H](O)[C@@H](CO)O3)nc2c1
#43 O=C(c1cnccn1)N1CC[C@@H]2[C@@H](CO)Nc3ccc(-c4ccccc4)cc3[C@@H]21

Assay by compound,40,41,42,43
Ecoli rRNA inh OD600,-4,-3,1,16
Ecoli rRNA inh,7,3,-4,2
Ecoli rRNA inh RFP,-0.3,36,0.8,-2.1
FGF22 binding,i,i,i,i
AF4-AF9 inh,3.5,5.2,-1.0,0.2

Additional structures.
entry	Molecule	Ecoli rRNA inh OD600	Ecoli rRNA inh	Ecoli rRNA inh RFP
49	C[C@@H]1CN([C@@H](C)CO)C(=O)c2cc(NC(=O)c3ccncc3)ccc2O[C@@H](C)CCCCO[C@H]1CN(C)C(=O)Nc1cccc2ccccc12	-12	-4	2.5
50	O=[N+]([O-])c1ccc2oc(/C=C/c3ccc(O)cc3)nc2c1	-12	-12	-0.2
51	COc1ccc(CN(C)C[C@@H]2OCCCC[C@@H](C)Oc3ccc(NC(=O)Nc4ccc(OC)cc4)cc3C(=O)N([C@H](C)CO)C[C@H]2C)cc1	8	3	-2.0
52	CO[C@@H]1CN(C)C(=O)c2cc(NC(=O)CC(F)(F)F)ccc2OC[C@H](C)N(C(=O)C2CCOCC2)C[C@@H]1C	0	2	3.0
53	COc1ccc(C(O)c2ncc(-c3ccccc3OC)[nH]2)cc1F (centres undefined)	-10	0	-5.6
54	C[C@@H]1CN([C@H](C)CO)C(=O)c2cc(N(C)C)ccc2O[C@H]1CN(C)C(=O)Nc1ccc(C(F)(F)F)cc1	-14	-14	-1.1
55	C[C@H]1CN([C@@H](C)CO)C(=O)c2cc(NC(=O)CCCCCC(=O)Nc3ccccc3N)ccc2O[C@H]1CN(C)C(=O)Nc1ccccc1	8	2	-3.0
56	Cc1ccc(S(=O)(=O)N[C@H]2CC[C@H](CC(=O)N3CCc4ccccc4C3)O[C@@H]2CO)cc1	-6	-4	1.2
57	C[C@H]1CN([C@@H](C)CO)C(=O)c2cccc(NC(=O)Nc3ccc(F)cc3)c2O[C@H]1CN(C)S(C)(=O)=O	-2	4	0.5
58	N#C[C@@H]1[C@H](c2ccccc2C2=CCCCC2)[C@@H](CO)N1S(=O)(=O)c1ccccc1	-57	-34	2.6
59	O=C(Cc1ccccn1)N[C@@H]1CC[C@H](CCn2cc(-c3cccnc3)nn2)O[C@H]1CO	9	2	0.9
60	COc1ccc(C#Cc2ccc([C@@H]3[C@H]4CN(C(=O)C5CCOCC5)CC(=O)N4[C@H]3CO)cc2)cc1	-12	-2	7.1
61	C[C@H](CO)N1C[C@H](C)[C@@H](CN(C)Cc2ccc(C(=O)O)cc2)OCCCC[C@H](C)Oc2ccc(NC(=O)CCC(F)(F)F)cc2C1=O	12&3	23&4	5.2&-2.0
62	COc1ccccc1N(C)S(=O)(=O)c1ccc(C(=O)N(C)Cc2cccc(F)c2)cc1	-31	-20	-1.9

entry	FGF22 binding	AF4-AF9 inh
49	i	1.8
50	+	-0.4
51	i	3.3
52	i	-3.9
53	i	3.8
54	i	4.8
55	i	-1.8
56	i	-4.4
57	i	-0.5
58	i	-3.6
59	i	0.1
60	i	-1.0
61	i	-2.7&-3.0
62	i	-1.6
